Screening data: PubChem, Fisher Drug Discovery Resource Center
NPYLR7 ag = mosquito NPYLR7 agonism; HEK293T NPYLR7/Galpha15, GCaMP6s calcium fluorescence; activation, % at 10 µM; AID 1259423; hit rate 0.15% among 270,000; in the data active means activation above about 40%;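 further: 0% = vehicle and 100% = reference agonist at the receptor; some compounds past the cut are filed as inactive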
NPYLR7 ag max-min = second read-out of NPYLR7 ag, no call of its own (marks repeat the call); activation, %; measured here: Max-Min RFU normalised activation; some inactives read as strong as hits;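 span of the calcium signal over five minutes; 0% = vehicle and 100% = native peptide agonist; compound fluorescence can raise it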
Active calls of the source: *; & = joins results of further samples. An excerpt; rates above refer to the full screens.

SMILES	NPYLR7 ag	NPYLR7 ag max-min
CC(CSc1ncc(C(C)C)n1C(C)C)CS(C)(=O)=O (stereo not drawn)	1	0
O=C1Nc2cc(C(F)(F)F)ccc2SC1CC(=O)N1CCCCCC1 (stereo not drawn)	9	9
O=C(NCC[C@@H]1C[C@@H]2C=C[C@H]1C2)c1ccc(OC2CCN(Cc3ccccn3)CC2)cc1	-2	-3
CC1CC(C)CN(C(C)c2nc(N)nc(N(C)C)n2)C1 (stereo not drawn)	2	-1
Cc1nc2ccccc2c(=O)n1CC(O)c1ccc(Cl)cc1 (stereo not drawn)	8	3
CC(C#N)CN(C)C(=O)NCc1ccc(-c2ccc3c(c2)CCO3)cc1 (stereo not drawn)	-2	-1
CC(C)C(CNC(=O)c1ccc(OCc2cccnc2)cc1)N1CCOCC1 (stereo not drawn)	3	2
CC(Cc1cn(Cc2ccccn2)nn1)c1ccccc1 (stereo not drawn)	1	1
CC1(Cc2ccc(F)c(Cl)c2)C(=O)Nc2ccc(-c3cccnc3)cc21 (stereo not drawn)	2	4
COc1ccc(N2CCN(S(=O)(=O)CCCNC(=O)c3ccc[nH]c3=O)CC2)cc1	-1	-2
COc1ccc(NC(=O)CCC2CCCN(Cc3ccncc3)C2)cc1Cl (stereo not drawn)	11	4
COC(=O)c1ccc(NC(=O)CC2CSc3nc4[nH]ncc4c(=O)n32)cc1 (stereo not drawn)	0	28
CCC(C)NC(=O)Cn1nc(C)n2c(cc3occc32)c1=O (stereo not drawn)	5	1
CCCCCOc1ccc(C(=O)N2CCCC(O)C2)cc1OCCCCC (stereo not drawn)	0	-6
CCCCCCC(=O)N(CCCC)CC(=O)N1c2ccccc2-n2cccc2C1c1ccc(Cl)cc1 (stereo not drawn)	11	18
CC(=O)Nc1nc2ccc(NC(=O)c3c([N+](=O)[O-])cnn3C)cc2s1	-3	-3
O=C1NCC(COC(=O)c2ccc3c4c(cccc24)CC3)O1 (stereo not drawn)	3&1	10&0
CNc1nc2cnc(Nc3cccc(C(C)C)c3)cc2n1CC1CC1	12	3
COc1ccc(S(=O)(=O)N2CCOCC2)cc1NS(=O)(=O)c1ccc2c(c1)CCC2	5	4
COCCNC(=O)c1c(NC(=O)c2ccc(OC)cc2)sc2c1CCCC2	1	-1
Cc1cc(OC(=O)c2ccccc2Cl)c([N+](=O)[O-])c(=O)[nH]1	1	0
FC(F)(F)c1cccc(Cc2noc(CN3CC4C[C@@H]5CC3C[C@H](C4)C5)n2)c1	3	-1
CC(C)c1cc(C(=O)N2CCc3[nH]c4ccccc4c3C2)n(C)n1	5	4
O=C1CSC(c2ccc(F)cc2)N1c1ccc(Br)cn1 (stereo not drawn)	-7	-11
N#Cc1ccc(Cl)cc1NC(=O)c1csc(-c2cnccn2)n1	-2	-2
CN(CC(=O)Nc1ccc(Cl)cn1)CC(=O)Nc1ccccc1Cl	1	19
COc1cccc2cc(C(=O)Nc3cccc(C(F)(F)F)c3)c(=N)oc12	4	0
CSc1ccc(NC(=O)CSCC(=O)Nc2ccccc2F)cc1	2	-1
CC1(C(=O)Nc2ccncc2)CCN1C(=O)Cc1cc(F)ccc1F (stereo not drawn)	8	6
Cc1ccc(Cn2cc(C(=O)NNC(=O)Nc3cccs3)ccc2=O)cc1	3	0
CCOc1ccccc1C(=O)Nc1ccc(N2CCN(C(=O)c3ccc(OC)cc3OC)CC2)nc1	-2	7
Cc1ncc(CO)c(CN(C)Cc2cc(C(C)(C)C)n[nH]2)c1O	-4	-4
CC1CCC/C(=N\Nc2ccc(Cl)c(C(=O)O)c2)C1 (stereo not drawn)	5	12
Cc1ccc(OCC(=O)N=Nc2c(O)[nH]c3ccc([N+](=O)[O-])cc23)cc1	-1	-5
CN(C)CCCN(C)C(=O)CN1C(=O)C(Oc2ccccc2)C1c1ccccn1 (stereo not drawn)	-4	1
COc1c(C)cnc(CN)c1C	-4	-12
Cc1ccc(-n2nc(C)cc2NC(=O)CCCN2C(=O)CCC2=O)cc1	9	3
O=C(CN1CCCCCC1)N1CCc2c(nc(-c3ccccc3)[nH]c2=O)C1	4	3
COc1cccc(-c2cc(C(=O)N3CCN(C(=O)Cc4ccccc4)CC3)c(C)n2-c2ccccc2)c1	-1	6
COCCNC(=O)c1cc(-c2ccc(Cl)cc2)n(-c2cccc(OC)c2)c1C	-1	0

Next records
The line under a structure holds: NPYLR7 ag	NPYLR7 ag max-min
O=C1Nc2ccccc2C1=NN=C1CC(c2ccccc2)N=N1 (stereo not drawn)
 : 10	-2
CCOC(=O)N(C)c1ccc(NC(=O)c2cccnc2NC(C)C)cc1
 : 5	1
O=C1NC2(CCCCC2)C(=O)N1CC(=O)N(CC1CCCO1)C1CCS(=O)(=O)C1 (stereo not drawn)
 : 1	2
COCC(=O)NC1CCN(Cn2c(=O)oc3cc(Cl)ccc32)CC1
 : 6	5
O=S(=O)(C(=Cc1ccc2c(c1)OCCO2)c1nc2ccccc2[nH]1)c1ccccc1
 : 5	10
COCCN1CCC(CNc2nnc(C)c(C)c2C#N)CC1
 : 11	7
CCOC(=O)C(=O)N1CCc2ccccc2C1c1ccc(F)cc1 (stereo not drawn)
 : -5	1
CC(C)Nc1ccc(C(=O)NCCc2cccc(F)c2)cn1
 : 1	-2
COc1cccc(Cc2nsc(Oc3ccc(C(=O)N4CCC(Cc5ccccc5)CC4)cc3OC)n2)c1
 : 17	13
Cc1[nH]c2ccccc2c1C(=O)N1CCN(S(=O)(=O)c2ccc(F)cc2F)CC1
 : 9	12
COc1ccc(S(=O)(=O)Oc2cc(CN(CCN(C)C)C(=O)NC(C)(C)C)ccc2OC)cc1
 : 7	22
COCCN1C(=N)C(c2nc3ccccc3[nH]2)C(=O)C1c1ccccc1 (stereo not drawn)
 : 2	1
Cc1sc2nc(CN(Cc3ccco3)CC(O)CN3CCOCC3)[nH]c(=O)c2c1C (stereo not drawn)
 : 14	15
CC(C)(C)c1noc(COC(=O)Cc2[nH]nc3ccccc23)n1
 : 1	0
CCOCc1cn(CC(=O)c2ccc(OC)cc2)c(C)nc1=N
 : 0	-5
Cc1nc(C(Cl)(Cl)Cl)[nH]c(=O)c1SCCO
 : 5	5
COc1cccc(-c2cc(C(=O)Nc3ccc(F)cc3)nc3cc(-c4ccccc4)nn23)c1
 : 19	32
CC(=O)Nc1ccc(SCC(=O)NC2CCSc3ccccc32)cc1 (stereo not drawn)
 : 1	9
CCCc1cc(=O)n2[nH]c(COC)c(-c3ccccc3)c2n1
 : -6	-5
Cc1cccc(C(=O)N2CCC(N3CCCC(C(=O)N4CCCC4)C3)CC2)n1 (stereo not drawn)
 : 23	14
CCN(CC)c1cc(N2CC(N3CCCCC3C)C2)nc(N)n1 (stereo not drawn)
 : -1	-4
Cc1nc(COc2ccc(F)cc2)sc1C(=O)N1CCc2ccc(O)cc2C1
 : -9	-10
Cc1ccsc1C(=O)N1CCC1(C)C(=O)NCC(C)(C)C (stereo not drawn)
 : 3	2
Cc1ccc2nc(NC(=O)C3=COCCO3)sc2c1
 : 3	0
CC(C)(O)C#Cc1ccc(C2CC(=O)Nc3c2cnn3CC2CC2)cc1 (stereo not drawn)
 : -8	-12
COc1ccc(Cl)cc1Nc1nnc(-c2cc3cc([N+](=O)[O-])ccc3oc2=O)s1
 : -10	-13
Cc1ccc(C2NC(=O)N(C)C3=C2C(=O)N(CC(=O)NCC2COc4ccccc4O2)C3)cc1 (stereo not drawn)
 : 1	16
COc1cc(C(=O)NNC(=O)COc2ccc(Cl)cc2)cc(OC)c1OC
 : -1	-3
CCCn1c(C2CC(=O)N(c3ccc(Br)cc3)C2)nc2ccccc21 (stereo not drawn)
 : 4	4
CN(CCCNC(=O)c1ccc(-c2n[nH]c3c2COc2ccccc2-3)cc1)c1ccccc1
 : 6	0
O=C1NC(c2ccc3c(c2)OCO3)C(C(=O)c2ccccc2)C(O)(C(F)(F)F)N1 (stereo not drawn)
 : 43*	72*
OC(c1nnc(-c2ccccc2)o1)c1ccc(Br)cc1F (stereo not drawn)
 : 0	-3
CNc1ncc(C(=O)N2CCC(c3ccccc3C(=O)O)C2)cn1 (stereo not drawn)
 : 3	-6
CCSc1nc(NCC(C)C)c2cnn(CCNC(=O)c3ccc(F)c(F)c3)c2n1
 : 2	0
CCC(C)NC(=O)COC(=O)c1ccc(OC)cc1F (stereo not drawn)
 : 7	3
CN(C)S(=O)(=O)CCCn1ccc(=O)c2sccc21
 : 1	-5
CN1CCN(c2ccc(NC(=O)CNC(=O)c3ccccc3F)cn2)CC1
 : -7	-8
Cc1ccc(CN(CC(O)COCc2ccco2)C2CC2)s1 (stereo not drawn)
 : 17	28
CCc1nc(NCc2ccco2)c2ccc(Cl)cc2n1
 : 1	13
COC(=O)c1ccc2c(c1)CC(CNC(=O)Cc1cccs1)O2 (stereo not drawn)
 : 1	-1
Cc1ccc(Cl)c(NC(=O)N2CCN(c3ncccc3C(=O)NCc3ccc4c(c3)OCO4)CC2)c1
 : 19	7
O=C(CCNC(=O)c1ccco1)Nc1nc(-c2ccc3c(c2)CCCC3)cs1
 : 6	14
Cc1cc2nc(-c3ccccc3)c(N3CCCN(C(=O)c4c(-c5c(Cl)cccc5Cl)noc4C)CC3)nc2cc1C
 : 6	0
COc1ccc(NC(=O)C(C2CCCC2)N2CCN(C(=O)c3ccccc3Cl)CC2)cc1OC (stereo not drawn)
 : -8	18
